RGS16-Gao HTS: modulates binding between human RGS16 and Galphao. O15492+P09471. bead-based flow cytometry RGS16-Galphao binding, fluorescence; actives lie on both sides. binding response (% of control), % at 10 µM. hit rate 0.38% among 220,000. AID 1441;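 active means below 25% or above 175%, edge rows of some plates excepted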;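 further: Galphao activated by GDP with aluminum fluoride before binding; 100% = wells without compound and 0% = beads without RGS; some results beyond the cut were filed as inactive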
Insulin prom inh: TRM-6 insulin promoter activity inhibition. TRM-6 cells (human fetal islet line), insulin promoter-eGFP reporter, imaging; reporter expression induced with tamoxifen. inhibition, % at 2 µM. hit rate 0.9% among 130,000. AID 1273;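 active means inhibition above the mean plus 3 SD, with well images judged a real hit on visual review, cut at about 60% in these data, passing the limit was not always enough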
HSV replic up: increases HSV replication in cells | HSV replication augmentation in cells, fold increase | maximum fold increase | hit rate 0.005% among 220,000 | AID 1956;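 active means peak rise of 1.5-fold or more in the series; tested in PC3 cells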;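 further: first round at 10 µM; read as green reporter fluorescence; hits show the peak of a series up to 25 µM; 1 = signal of infected wells without compound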
GALR2 agonist: activates the human galanin receptor 2. activation, %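 (tested at 5 µM)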. GALR2-expressing cells, agonist activation read-out. hit rate 0.48% among 140,000. O43603;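 active means above mean plus 3 SD of all compounds, about 5% in these data, not always enough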;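 further: 0% = vehicle buffer wells and 100% = reference agonist at full effect; tested in CHO reporter cells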
PKD1 inh: inhibitors of human PKD1 kinase. Q15139. PKD1 kinase fluorescence polarization assay. inhibition, %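 (about 10 µM by stock and volumes)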. hit rate 0.056% among 200,000. AID 797;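 active means inhibition of 50% or more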;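 further: controls were vehicle for no effect and a reference inhibitor for full effect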
Target sequence (Q15139 whole entry, looked up): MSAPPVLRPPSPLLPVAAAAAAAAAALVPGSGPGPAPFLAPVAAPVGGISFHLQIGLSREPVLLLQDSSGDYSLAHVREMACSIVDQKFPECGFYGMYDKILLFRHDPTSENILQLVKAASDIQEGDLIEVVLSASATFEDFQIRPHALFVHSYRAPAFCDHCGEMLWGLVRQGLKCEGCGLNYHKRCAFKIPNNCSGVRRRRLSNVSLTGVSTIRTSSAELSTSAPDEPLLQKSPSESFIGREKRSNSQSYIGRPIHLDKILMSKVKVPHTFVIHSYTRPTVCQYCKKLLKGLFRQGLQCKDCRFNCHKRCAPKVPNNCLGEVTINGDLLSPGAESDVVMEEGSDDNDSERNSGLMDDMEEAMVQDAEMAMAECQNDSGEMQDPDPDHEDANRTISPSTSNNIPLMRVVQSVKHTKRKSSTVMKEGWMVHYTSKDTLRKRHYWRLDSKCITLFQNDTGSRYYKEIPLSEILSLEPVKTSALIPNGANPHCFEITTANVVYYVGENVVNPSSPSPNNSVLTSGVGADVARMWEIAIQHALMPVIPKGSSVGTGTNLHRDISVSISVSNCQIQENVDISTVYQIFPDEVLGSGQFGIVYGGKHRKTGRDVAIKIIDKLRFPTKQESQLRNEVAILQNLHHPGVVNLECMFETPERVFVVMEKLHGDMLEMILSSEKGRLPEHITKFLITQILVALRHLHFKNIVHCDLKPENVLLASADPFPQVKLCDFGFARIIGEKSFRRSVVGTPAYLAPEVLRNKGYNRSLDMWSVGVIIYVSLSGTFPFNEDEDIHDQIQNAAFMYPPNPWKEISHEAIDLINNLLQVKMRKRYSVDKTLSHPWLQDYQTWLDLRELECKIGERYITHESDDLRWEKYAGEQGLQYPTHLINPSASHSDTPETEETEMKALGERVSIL
Insulin prom inh cell count: also measured in Insulin prom inh; calls as there; normalized cell count, %; measured here: cell count, toxicity; reference of the scale not given here;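 cells exposed to compound for 48 h; stained nuclei by imaging scaled within each plate; lower means fewer cells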
HSV replic up primary fold: also measured in HSV replic up; calls as there; fold increase; compound at 10 µM; measured here: primary screen fold increase 10 uM; tested in PC3 cells;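 GFP signal in the first replicate; 1 = infected wells without compound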
* = called active by the depositor; i = inactive; nt = not tested or not shown; [ ] = dose if it differs, or a comment.

molecule	Insulin prom inh cell count	GALR2 agonist	HSV replic up	HSV replic up primary fold	RGS16-Gao HTS	Insulin prom inh	PKD1 inh
CSCC[C@H](NC(=O)COc1ccc(Cl)cc1)c1nc2ccccc2[nH]1	66	-0.9	i	1.2	203*[activator]	14	0
C=CCSC1=N/C(=C\c2sccc2C)C(=O)S1	116	-2.4	i	0.97	98	58	-3
CN(C)/C=N/C(=S)Nc1ccccc1	nt	nt	i	0.88	104	nt	-7
Cc1cc2nc(C)n3c4ccccc4nc3n2n1	143	-1.4	i	0.98	98	43	-2
CC(C)C(NC(=O)COc1ccc2ccccc2c1)C(=O)N/N=C/C=C/c1ccccc1 (stereo unspecified)	119	-3.7	i	0.88	101	-39	-4
OC(Cn1ccnc1)c1ccc(Cl)cc1Cl (stereo unspecified)	nt	-0.7	i	0.99	95	nt	-1
COc1ccc(CNC(=O)c2cc3c(=O)[nH]c4ccccc4c3n2C)cc1	nt	nt	i	0.96	100	nt	5
O=C(NC(=S)Nc1cccc2cccnc12)c1cccs1	nt	nt	i	0.74	113	nt	-1
O=C(N=Nc1c(O)[nH]c2ccccc12)c1ccc(CN2CCOCC2)cc1	nt	nt	i	0.98	101	nt	-3
Brc1ccc2nc(-c3cccs3)c(NCC3CCCO3)n2c1 (stereo unspecified)	nt	nt	i	0.98	104	nt	-4
COc1ccc(C(C#N)N2N=C(C)CC2(C)C)cc1OC (stereo unspecified)	124	-1.8	i	1.2	102	31	-5
CC(=O)C1=C(C)NC(SCC(N)=O)=C(C#N)C1c1cccs1 (stereo unspecified)	40	-0.5	i	1.2	100	14	-4

Other compounds follow.
molecule	Insulin prom inh cell count	GALR2 agonist	HSV replic up	HSV replic up primary fold	RGS16-Gao HTS	Insulin prom inh	PKD1 inh
Cc1ccc(-n2c(Cc3cccn3C)nnc2SCC(=O)N2CCc3ccccc32)cc1	110	-0.2	i	1.1	109	-50	-3
Cc1nc(CN(C)C(=O)c2cc(COc3c(F)cccc3F)on2)cs1	nt	nt	i	1	110	nt	1
COc1ccc([C@H]2[C@H]3C=CC[C@@H](C)[C@@H]3C(=O)N2Cc2ccccc2)cc1Cl	nt	nt	i	0.9	101	nt	nt
C=CCSc1nnc(C)n1-c1ccc(Cl)cc1	141	-2.0	i	0.85	99	50	-10
CCN(CCCNC(=O)COc1cc(=O)n(CC)c2ccccc12)Cc1ccccc1	73	-1.2	i	0.9	101	19	-19
Cc1ccccc1NC(=S)N(Cc1cccs1)C1CCCC1	nt	nt	i	0.97	100	nt	-5
CCOc1ccccc1NC(=O)C1CCC(CNc2c(N3CCOCC3)c(=O)c2=O)CC1 (stereo unspecified)	nt	-1.6	i	0.87	99	nt	-1
Cc1noc(NC(=O)c2ccc(F)cc2)c1C#N	129	-2.6	i	0.99	101	3	-16
Cc1cc(C)nc(N2N=C(c3ccccc3)CC2=O)n1	96	nt	i	1.1	102	-109	-6
O=C(CCN1C(=O)c2ccccc2C1=O)OCN1C(=O)c2ccccc2C1=O	77	-1.1	i	0.96	108	4	-9
COc1ccc(C(=O)Nc2ccccc2C(=O)N/N=C/c2ccccn2)cc1OC	nt	nt	i	0.92	103	nt	nt
CCOc1ccc(N(CC(=O)Nc2nccs2)S(=O)(=O)c2c(C)noc2C)cc1	nt	-2.8	i	0.93	106	nt	-2

The results go on.
molecule	Insulin prom inh cell count	GALR2 agonist	HSV replic up	HSV replic up primary fold	RGS16-Gao HTS	Insulin prom inh	PKD1 inh
CCOc1cc(NC(=O)c2cccs2)c(OCC)cc1NC(=O)CCC(=O)NCC1CCCO1 (stereo unspecified)	nt	nt	i	0.98	99	nt	-8
O=C(Nc1ccc(F)cc1F)N1CCN(c2ncccn2)CC1	69	-0.8	i	0.97	101	-57	3
Nc1ccccc1Nc1cc(-c2ccccc2)nn1-c1ccccc1	103	-0.4	i	1.7	99	-191	-2
COc1ccc(/C=N/N=C2/NC(=O)C(CC(=O)O)S2)cc1OCc1ccccc1Cl (stereo unspecified)	135	-0.3	i	0.91	102	-17	10
CCC(=O)NC(=S)Nc1cccc(NC(=O)c2ccco2)c1	nt	nt	i	0.91	111	nt	-5
Cc1cc(C)c(C)c(OCCOCCN2CCN(C)CC2)c1	147	-0.6	nt	nt	100	8	-9
COc1cccc(CN2C(=O)CCC2(C)C(=O)NC2CCCCC2)c1 (stereo unspecified)	nt	-1.9	i	1	109	nt	-2
O=C1c2cccc3cc([N+](=O)[O-])cc(c23)C(=O)N1/N=C/c1ccc(O)cc1O	nt	nt	i	1.3	99	nt	nt
Cc1ccc(C)c(NC(=O)CS(=O)(=O)c2c[nH]c3ccccc23)c1	nt	-2.7	i	0.91	100	nt	-6
S=C(c1cn(Cc2ccc(Br)cc2)c2ccccc12)N1CCOCC1	nt	-1.9	i	0.96	97	nt	5
O=C(NC1CCCCC1)N1CCc2[nH]c3ccccc3c2C1	91	-0.7	i	0.84	104	11	7
O=C(Oc1ccc(OC(=O)C2CCC2)cc1)C1CCC1	101	-2.2	i	0.84	104	35	2

Part of the list above, with two lines to a compound.
Below each compound – Insulin prom inh cell count, GALR2 agonist, HSV replic up, HSV replic up primary fold, RGS16-Gao HTS, Insulin prom inh, PKD1 inh
> O=C(CCN1C(=O)c2ccccc2C1=O)OCN1C(=O)c2ccccc2C1=O
  77, -1.1, i, 0.96, 108, 4, -9
> Nc1ccccc1Nc1cc(-c2ccccc2)nn1-c1ccccc1
  103, -0.4, i, 1.7, 99, -191, -2

The list goes on.
molecule	Insulin prom inh cell count	GALR2 agonist	HSV replic up	HSV replic up primary fold	RGS16-Gao HTS	Insulin prom inh	PKD1 inh
N#Cc1sc(NCc2ccccc2)nc1Cl	nt	nt	i	1	94	nt	-2
CC(C)CCNC(=O)COC(=O)/C=C/c1ccc2ccccc2n1	nt	nt	i	0.89	98	nt	1
COc1ccc(CNC(=S)Nc2cccc(C)c2C)cc1	118	0.4	i	1.1	105	0	-8
CC(=O)/C(=N\Nc1ccc(Cl)cc1Cl)Sc1nnc(-c2ccccc2)n1-c1ccccc1	nt	-1.4	i	1	105	nt	-4
COc1ccccc1C(=O)Nc1ccc(-c2nnn(CC(=O)NCc3ccco3)n2)cc1	nt	nt	i	0.89	102	nt	nt
Cc1ccc(NC(=O)CN2C(=O)S/C(=C\c3ccc(-c4cccc(C(=O)O)c4C)o3)C2=O)cc1	nt	-1.3	i	0.95	98	nt	6
Cc1cc(C2C(C#N)=C(N)OC3=C2C(=O)CC(C)(C)C3)c(C)s1 (stereo unspecified)	82	-1.8	i	0.97	97	6	1
O=C(COC(=O)c1cccc(S(=O)(=O)N2CCN(c3ccc(F)cc3)CC2)c1)NCC1CCCO1 (stereo unspecified)	nt	nt	i	0.94	94	nt	-4
Cc1cc(C)cc(NC(=O)CCNS(=O)(=O)c2ccc3c(c2)oc(=O)n3C)c1	121	-0.8	i	1.1	99	-76	0
COC(=O)c1ccc(NS(=O)(=O)c2ccc3c(c2)oc(=O)n3C)cc1	nt	nt	i	0.96	104	nt	-8
C1CNCCOCCNCCN1	97	-0.6	i	0.96	103	13	-13
COc1ccc(CNC(=O)C(C#N)c2nc3ccccc3nc2N2CCCC2)cc1 (stereo unspecified)	nt	0.2	i	0.74	100	nt	3

The list continues:
molecule	Insulin prom inh cell count	GALR2 agonist	HSV replic up	HSV replic up primary fold	RGS16-Gao HTS	Insulin prom inh	PKD1 inh
CCC1CCCCN1C(=O)CSc1nc2c(cnn2-c2ccc(C)cc2)c(=O)[nH]1 (stereo unspecified)	nt	-2.1	i	1	108	nt	-3
O=C(COC(=O)c1cc(-c2cccs2)nn1-c1ccccc1)Nc1ccc(F)c([N+](=O)[O-])c1	50	-1.0	i	0.98	105	-20	-4
COc1ccc(-n2nc(C(=O)NCC(=O)NCC3CCCO3)c3ccccc3c2=O)cc1 (stereo unspecified)	66	0.6	i	0.81	92	-40	1
COc1ccc(-c2nc(CSCC(=O)NCc3ccc4c(c3)OCO4)c(C)o2)cc1OC	nt	-0.5	i	0.81	104	nt	-13
O=C(Cc1ccccc1)N/N=C/C=C/c1cccc([N+](=O)[O-])c1	69	-0.3	i	0.97	100	22	-14
CCNC(=O)CC1C(=O)N(CC)C(=S)N1NC(=O)c1ccccc1 (stereo unspecified)	nt	nt	i	0.84	88	nt	nt
CC(=O)Nc1ccc(NC(=O)CSCCc2ccccn2)cc1	36	-1.1	i	1.1	73	13	-10
CCOc1ccc(C(F)(F)F)cc1NC(=O)c1ccc(OC)c([N+](=O)[O-])c1	nt	-1.6	i	0.96	94	nt	6
CCCCc1ccc(/C=C2\C(=O)ON=C2c2ccccc2)s1	nt	-0.3	i	0.88	53	nt	5
c1cnc2c(C3NCCc4c3[nH]c3ccccc43)cccc2c1 (stereo unspecified)	nt	nt	i	0.85	102	nt	4
O=C(O)c1ccccc1-c1ccccc1C(=O)NCc1cccnc1	nt	nt	i	0.93	110	nt	0
COc1ccc(/C=N/OCC(=O)N=Nc2c(O)[nH]c3ccc(Br)cc23)cc1	109*	nt	i	0.97	103	80*	3

Carrying on.
molecule	Insulin prom inh cell count	GALR2 agonist	HSV replic up	HSV replic up primary fold	RGS16-Gao HTS	Insulin prom inh	PKD1 inh
O=C(COc1ccccc1)NC1CCSC1=O (stereo unspecified)	nt	nt	i	1.1	99	nt	-4
CC(NC(=O)c1c(Cl)cnn1C)C1CCCO1 (stereo unspecified)	nt	nt	i	0.79	108	nt	nt
CC(NC(=O)c1ccccc1NC(=O)c1ccco1)C(=O)O (stereo unspecified)	35	-1.0	i	0.91	87	-19	-4
Cc1c(Cl)cccc1NC(=O)CCCn1cnc([N+](=O)[O-])n1	90	nt	i	0.93	85	-18	-4
CCOC(=O)CC(=O)CSc1[nH]c(=O)cc(C)c1C#N	147	-0.1	i	0.94	104	-36	3
COCc1nnc(NC(=O)c2ccco2)s1	96	-1.3	i	1	89	43	-6
O=C(CSc1nc2ccccc2n1S(=O)(=O)c1cccc([N+](=O)[O-])c1)NCCc1ccccc1	90	-1.6	i	1	105	14	-11
COc1cc(OC)cc(-c2nc3ccccc3c(=O)n2OC(=O)c2ccc(Br)cc2)c1	87	0.0	i	0.92	51	17	12
CCOC(=O)C1CCN(c2c(NCCCN(CC)Cc3ccccc3)c(=O)c2=O)CC1	nt	-1.4	i	1.1	102	nt	-16
C=CCN1C(=O)OC2(CCCCC2)C1(C)O (stereo unspecified)	102	-0.6	i	0.92	89	0	-15
Cc1ccccc1C(=O)NNC(=S)NC(=O)c1ccccc1	98	0.4	i	1	101	2	-3
CC(C)c1ccccc1NC(=O)CCc1nc2ccccc2s1	nt	-0.8	i	1.1	94	nt	-3

Going on with the list:
molecule	Insulin prom inh cell count	GALR2 agonist	HSV replic up	HSV replic up primary fold	RGS16-Gao HTS	Insulin prom inh	PKD1 inh
Cc1[nH]n(-c2ccccc2)c(=O)c1C(=O)c1ccc([N+](=O)[O-])cc1	59	nt	i	0.88	109	33	-2
C/C(=N\N=C1\NC(=O)C(CC(=O)Nc2ccc(Cl)cc2)S1)c1ccco1 (stereo unspecified)	nt	nt	i	0.88	95	nt	-6
Cc1ccc(C(=O)CSc2nnc(-c3ccccc3)n2-c2ccccc2)o1	163	0.6	i	0.87	107	11	-7
Cc1cc(/C=N/Nc2ccc([N+](=O)[O-])cn2)c(C)n1-c1ccc(C(=O)O)cc1	118	nt	i	1	98	60	3
COC(=O)c1cccc(C23CC4(C2)[C@H](CN(C)[C@@H]4c2ccccc2)C3c2ccc(C(F)(F)F)cc2)c1 (stereo partly specified)	nt	nt	i	0.7	110	nt	nt
O=C(CSc1nnc(NC(=O)c2ccc3c(c2)OCO3)s1)NCc1ccco1	nt	nt	i	1	98	nt	3
COC(=O)c1cccc(C#CC(NP(=O)(c2ccccc2)c2ccccc2)c2ccccc2)c1 (stereo unspecified)	nt	nt	i	0.9	103	nt	nt
O=C(O)c1ccc(-c2ccccc2Cl)o1	nt	-0.8	i	0.78	105	nt	-10
Cc1cc(C(C)(C)C)oc1C(=O)N(CC(=O)NC1CCCC1)c1ccc(F)cc1	106	-1.6	i	0.91	98	-19	-4
CCOC(=O)c1c(NC(=O)c2cccs2)sc2c1CCN(C(=O)OCC)C2	89	-2.0	i	0.7	98	25	-5
COc1ccc(CNCC(O)COc2ccc(C)cc2[N+](=O)[O-])cc1 (stereo unspecified)	nt	nt	i	0.99	98	nt	nt
Cc1cccc(-n2c(-c3csc(C(C)C)c3)n[nH]c2=S)c1	108	-0.1	i	0.93	97	40	3
COc1ccc2c(CC(=O)NC3CCCc4ccccc43)coc2c1 (stereo unspecified)	nt	-0.6	i	0.83	103	nt	-5
COc1ccc(CN2CC(C(=O)NCCc3ccc(C)cc3)CC2=O)cc1 (stereo unspecified)	56	-1.7	i	1	101	46	-7
